Assay outcomes from PubChem.
Vif TR-FRET = HIV-1 Vif–A3G interaction blockers – biochemical, TR-FRET, GST-Vif 1-94, biotin-A3G peptide, dose response retest, primary screen (AID 1117319); 260,000 compounds, 0.57% hits; one-dose inhibition, %; IC50 in µM for titrated hits; TR-FRET GST-Vif / biotin-A3G peptide binding; higher % means a stronger effect; test concentration not given here; strong numbers were not always called active;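 active = above the screen mean plus three standard deviations and confirmed in dose response; inconclusive = results disagree or hit not tested in dose response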;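 also: Vif residues 1-94 fused to GST binding biotinylated APOBEC3G peptide 110-148; 0% = full assay without inhibitor and 100% = GST in place of GST-Vif; retest series ran down from 100 µM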
UCH37 DUB inh = blocks the human deubiquitinase UCH37; Q9Y5K5; purified proteasome/UCH37, Ub-AMC cleavage fluorescence; inhibition, % (test concentration not listed); 330,000 compounds, 0.33% hits; AID 588478;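 active = mean of two replicates above 20%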;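 also: 0% = compound-free wells with enzyme and 100% = wells lacking proteasome; stock transfer was 100 nL into about 20 µL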
Target sequence (Q9Y5K5 whole entry, looked up): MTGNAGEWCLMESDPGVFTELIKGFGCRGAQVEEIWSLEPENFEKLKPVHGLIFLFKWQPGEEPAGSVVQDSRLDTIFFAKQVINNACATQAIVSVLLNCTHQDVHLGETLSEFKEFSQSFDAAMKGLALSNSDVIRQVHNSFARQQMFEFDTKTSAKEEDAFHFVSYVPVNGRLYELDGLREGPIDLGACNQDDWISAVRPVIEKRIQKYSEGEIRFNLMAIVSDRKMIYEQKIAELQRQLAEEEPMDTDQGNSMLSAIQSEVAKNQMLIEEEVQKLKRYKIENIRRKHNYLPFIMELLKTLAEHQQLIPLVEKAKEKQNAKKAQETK
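Test system – human UCH37 enzyme supplied as purified proteasome complex · Incubation – 30 min preincubation with enzyme, 25 min cleavage at room temperature · Detection – AMC fluorescence from Ub-AMC cleavage, excitation 355 nm, emission 460 nm · Benchmarks – no-proteasome wells (full inhibition) and compound-free wells (no inhibition)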
LANA-H2B inh = blocks KSHV LANA binding to histone H2A/H2B; AID 2629; 320,000 compounds, 0.6% hits; cell-free LANA-H2A/H2B peptide, fluorescence polarization; inhibition, % (test concentration not listed); Q9QR71; in the data active = inhibition mostly above about 10%, no sharp cut-off; inactive = mostly below about 6.7%;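 also: stock transfer was 7.5 nL into about 10 µL; 0% = median of vehicle wells and 100% = median of positive control wells; one replicate is shown; the record names a cut of 25% in any replicate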
Beta2AR agonist = activates human beta-2 adrenergic receptor causing internalization; response, % (concentration not given with the values); P07550; 340,000 compounds, 0.43% hits; Am2.2-beta2AR cells, FAP receptor internalization, flow cytometry; reference of the scale not given here;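 active = response above a set limit, near 3 SD of response in nonfluorescent compounds, cut at about 42% in these data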;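 also: stock transfer was 100 nL into about 11 µL; a reference agonist was the positive control; negative values mostly stem from fluorescent compounds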
Ecoli growth = E. coli growth inhibition; Escherichia coli growth, OD600, 23 h; stronger effect = lower value; OD600 absorbance (concentration not given with the values); 330,000 compounds, 0.21% hits; AID 1053175;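 active = OD600 absorbance below the run mean of sample wells minus 3.6 SD, in any replicate, cut at about 0.56 in these data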;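 also: stock transfer was 300 nL into about 60 µL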
HNF4A DNA FP = change in binding of human HNF4 alpha to DNA; P41235; HNF4a-FITC DNA binding, fluorescence polarization, 1 h; activity change, % at 10 µM; 360,000 compounds, 0.3% hits; in the data active = activity change above about 30%, passing the limit was not always enough;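 also: controls were the assay level and a saturating level of protein; the project sought stronger binding though the title names inhibitors; some compounds called inactive have numbers as strong as hits; positive values seem to mean higher polarization but the record does not say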
Target sequence (P41235 whole entry, looked up): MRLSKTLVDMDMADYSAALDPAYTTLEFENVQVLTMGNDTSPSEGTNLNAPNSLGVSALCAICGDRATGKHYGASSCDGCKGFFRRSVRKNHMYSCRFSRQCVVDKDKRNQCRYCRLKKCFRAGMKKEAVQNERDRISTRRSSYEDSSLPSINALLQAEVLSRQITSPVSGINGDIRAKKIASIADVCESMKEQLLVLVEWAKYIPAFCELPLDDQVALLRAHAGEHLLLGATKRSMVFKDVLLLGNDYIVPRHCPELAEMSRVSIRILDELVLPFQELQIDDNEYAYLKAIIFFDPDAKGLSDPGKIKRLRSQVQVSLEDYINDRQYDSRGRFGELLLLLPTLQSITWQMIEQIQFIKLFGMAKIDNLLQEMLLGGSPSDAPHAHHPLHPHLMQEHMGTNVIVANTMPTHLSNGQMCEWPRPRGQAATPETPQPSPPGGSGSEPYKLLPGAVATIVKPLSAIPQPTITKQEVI
A1 inh = inhibitors of the anti-apoptotic protein A1, read as caspase activation; MEF A1-2A-BIM cells, Caspase-Glo 3/7 luminescence, 3 h; percent of clofoctol response, vehicle zero; caspase activation, % (no concentration beside the values); 330,000 compounds, 0.066% hits; AID 2462;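 active = over half of replicate activation scores above 10%, or exactly half above 10 with the replicate mean above 10; inconclusive = replicate mean below 10 yet half the replicates above 10; inactive = over half of replicates below 10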;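 also: wells of about 30 µL received 50 nL stock; many hits fall short of the cut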
* hit, by the source's call. Rows are unselected; overall some 2.1% were active at least once.

CC(NC(=O)CCSc1nc(-c2ccc3c(c2)OCO3)cc(C(F)(F)F)n1)c1ccccc1 (stereo not drawn) was read as Vif TR-FRET 21.6%, UCH37 DUB inh -241.3, LANA-H2B inh -3.1, Beta2AR agonist -13.7, Ecoli growth 0.727, HNF4A DNA FP 1.0 and A1 inh 0.2.
CC(NC(=O)c1cc2cc([N+](=O)[O-])ccc2oc1=O)C1CCCO1 (stereo not drawn) was read as Vif TR-FRET -18.4%, UCH37 DUB inh 3.9, LANA-H2B inh 4.1, Beta2AR agonist -3.2, Ecoli growth 0.724, HNF4A DNA FP -0.9 and A1 inh 0.6.
For Cc1cc([N+](=O)[O-])ccc1NC(=S)NC(=O)Cc1ccccc1 the results were Vif TR-FRET -1.0%, UCH37 DUB inh 1.8, LANA-H2B inh -2.5, Beta2AR agonist -24.0, Ecoli growth 0.759, HNF4A DNA FP -1.3 and A1 inh -0.4.
Screening COc1ccc(OC)c(NC(=O)CSc2nc(=O)n(CCN3CCOCC3)c3c2CCC3)c1 returned Vif TR-FRET 10.7%, UCH37 DUB inh -0.6, LANA-H2B inh -0.8, Beta2AR agonist -2.1, Ecoli growth 0.708, HNF4A DNA FP -1.9 and A1 inh -0.6.
For Cc1cc(C)n(S(=O)(=O)c2ccc(C(C)(C)C)cc2)n1 the results were Vif TR-FRET 22.7%, UCH37 DUB inh -0.2, LANA-H2B inh -0.3, Beta2AR agonist -1.8, Ecoli growth 0.702, HNF4A DNA FP 3.4 and A1 inh 0.0.
COC(=O)Cc1c(O)ccn(CCc2ccccc2)c1=O was read as Vif TR-FRET 6.7%, UCH37 DUB inh -2.8, LANA-H2B inh 0.0, Beta2AR agonist -9.3, Ecoli growth 0.657, HNF4A DNA FP -3.2 and A1 inh -0.4.
For COc1cccc2cc(C(=O)NC(C)C3CCCO3)c(=O)oc12 (stereo not drawn) the results were Vif TR-FRET 8.0%, UCH37 DUB inh -4.0, LANA-H2B inh 3.3, Beta2AR agonist 2.6, Ecoli growth 0.706, HNF4A DNA FP -1.9 and A1 inh -0.3.
For O=C1CCCN1CCCNC(=S)Nc1cccc2ccccc12 the results were Vif TR-FRET 30.4%, UCH37 DUB inh 0.4, LANA-H2B inh 1.4, Beta2AR agonist 11.1, Ecoli growth 0.681, HNF4A DNA FP 6.4 and A1 inh 0.7.
CCCc1cc(=O)[nH]c(SCc2ccc(Cl)cc2)n1 was read as Vif TR-FRET 0.9%, UCH37 DUB inh 6.3, LANA-H2B inh -0.6, Beta2AR agonist 3.3, Ecoli growth 0.728, HNF4A DNA FP -1.3 and A1 inh 0.1.
For CCOCCc1nn2c(=O)cc(CSCC(=O)Nc3ccc(OC)cc3)nc2s1 the results were Vif TR-FRET 3.9%, UCH37 DUB inh 1.7, LANA-H2B inh -2.4, Beta2AR agonist -2.1, Ecoli growth 0.671, HNF4A DNA FP 1.4 and A1 inh 0.9.
CCCCOc1ccc(CN(C)c2ncnc(N)n2)cc1 was read as Vif TR-FRET 30.0%, UCH37 DUB inh 1.8, LANA-H2B inh 6.0, Beta2AR agonist -23.0, Ecoli growth 0.688, HNF4A DNA FP -1.7 and A1 inh -0.9.
`O=C(C1CC1)N1N=C(c2ccc(Cl)cc2)CC1(O)C(F)(F)F` (stereo not drawn) gave Vif TR-FRET -3.9%, UCH37 DUB inh 3.4, LANA-H2B inh -2.2, Beta2AR agonist 3.1, Ecoli growth 0.66, HNF4A DNA FP 4.5 and A1 inh -1.4.
`COc1ccc(C(=O)NCC(c2ccco2)N2CCc3ccccc32)cc1` (stereo not drawn) gave Vif TR-FRET -7.2%, UCH37 DUB inh -0.4, LANA-H2B inh -2.7, Beta2AR agonist 54.4*, Ecoli growth 0.675, HNF4A DNA FP -2.4 and A1 inh -0.3.
`CC(C)(C)n1nnnc1C(c1ccc(F)cc1)N(Cc1ccc(F)cc1)Cc1ccco1` (stereo not drawn) gave Vif TR-FRET 2.1%, UCH37 DUB inh 1.2, LANA-H2B inh 2.4, Beta2AR agonist 1.9, Ecoli growth 0.727, HNF4A DNA FP -2.5 and A1 inh 0.0.
Cn1c(CCC(=O)Nc2ccc(F)cc2)nc2cc(S(=O)(=O)N3CCOCC3)ccc21 was read as Vif TR-FRET -0.4%, UCH37 DUB inh 3.3, LANA-H2B inh -0.8, Beta2AR agonist -2.4, Ecoli growth 0.625, HNF4A DNA FP 0.7 and A1 inh 0.2.
c1nc(C2CCCCC2)cc2cc3c(cc12)OCO3 was read as Vif TR-FRET -1.0%, LANA-H2B inh -2.9, Beta2AR agonist -10.5, HNF4A DNA FP 0.6 and A1 inh -0.2.
For O=C1CC(C(=O)N2CCc3ccccc32)CN1c1ccc(F)cc1 (stereo not drawn) the results were Vif TR-FRET 5.6%, UCH37 DUB inh 1.6, LANA-H2B inh 0.5, Beta2AR agonist -2.5, Ecoli growth 0.66, HNF4A DNA FP 4.5 and A1 inh 0.6.
For CN(C)S(=O)(=O)NC(=O)C1=C(N2CCCC2)COC1=O the results were UCH37 DUB inh 0.6, LANA-H2B inh -2.6, Beta2AR agonist 3.4, Ecoli growth 0.724, HNF4A DNA FP 1.4 and A1 inh -1.7.
`CCOC(=O)c1ccc(-c2c(-c3ccc4c(c3)OCO4)noc2-c2ccsc2)cc1F` gave UCH37 DUB inh -3.0, LANA-H2B inh 4.0, Beta2AR agonist 5.5, Ecoli growth 0.836, HNF4A DNA FP 1.5 and A1 inh -0.1.
CCc1ccc(OCC2c3cc(OC)c(OC)cc3CCN2C(=S)NCCOC)cc1 (stereo not drawn) was read as Vif TR-FRET 0.8%, UCH37 DUB inh 3.8, LANA-H2B inh -3.3, Beta2AR agonist -5.7, Ecoli growth 0.683, HNF4A DNA FP -5.3 and A1 inh 0.4.
`Cc1ccc(C)c(NC(=O)CCC(=O)N/N=C2/CC(=O)CC(C)(C)C2)c1` gave Vif TR-FRET 14.1%, LANA-H2B inh 1.1, Beta2AR agonist -0.8, HNF4A DNA FP -0.6 and A1 inh 0.9.
For CN1CCN(NC(=O)/C=C/c2cccc(Cl)c2)CC1 the results were Vif TR-FRET -7.9%, UCH37 DUB inh 1.7, LANA-H2B inh -3.6, Beta2AR agonist 4.2, Ecoli growth 0.677, HNF4A DNA FP -2.0 and A1 inh 0.2.
For CN(c1ccccc1)c1nc(N)c([N+](=O)[O-])c(NCc2ccccc2)n1 the results were Vif TR-FRET 3.3%, UCH37 DUB inh 4.0, LANA-H2B inh 6.0, Beta2AR agonist -0.1, Ecoli growth 0.648, HNF4A DNA FP 2.4 and A1 inh 0.3.
N#Cc1c(-c2ccccc2)nc(-c2ccccc2)[nH]c1=O was read as Vif TR-FRET -11.9%, UCH37 DUB inh -16.2, LANA-H2B inh 1.0, Beta2AR agonist 15.8, Ecoli growth 0.662, HNF4A DNA FP -0.3 and A1 inh 0.2.
For Cc1ccc(C(=O)NCCNC(=O)Cc2ccccc2)cn1 the results were Vif TR-FRET 1.7%, UCH37 DUB inh 0.2, LANA-H2B inh -0.6, Beta2AR agonist 13.1, Ecoli growth 0.598, HNF4A DNA FP 0.4 and A1 inh 0.2.
`O=C(c1ccco1)N1CCN(C(c2ccccc2F)c2nnnn2Cc2cccs2)CC1` (stereo not drawn) gave Vif TR-FRET -0.8%, UCH37 DUB inh 3.4, LANA-H2B inh 1.4, Beta2AR agonist 9.3, Ecoli growth 0.743, HNF4A DNA FP 3.9 and A1 inh -1.2.
COc1ccc(N)cc1C#N was read as Vif TR-FRET 5.2%, UCH37 DUB inh 5.1, LANA-H2B inh -7.6, Beta2AR agonist -6.2, Ecoli growth 0.747, HNF4A DNA FP 2.6 and A1 inh 0.3.
`O=C(Nc1ccccn1)c1c(O)c2cccc3c2n(c1=O)CCC3` gave Vif TR-FRET 9.1%, UCH37 DUB inh -6.3, LANA-H2B inh 1.0, Beta2AR agonist -10.5, Ecoli growth 0.736, HNF4A DNA FP -4.3 and A1 inh 0.9.
For Cc1c(NC(=O)CSc2cccc3cccnc23)c(=O)n(-c2ccccc2)n1C the results were Vif TR-FRET -2.8%, UCH37 DUB inh -4.5, LANA-H2B inh -2.3, Beta2AR agonist 3.1, Ecoli growth 0.659, HNF4A DNA FP -2.5 and A1 inh 0.1.
For N#CC1=C2SCN(Cc3ccccc3)CN2C(=O)CC1c1ccccc1F (stereo not drawn) the results were Vif TR-FRET 4.0%, UCH37 DUB inh 6.9, LANA-H2B inh -1.5, Beta2AR agonist 0.9, Ecoli growth 0.773, HNF4A DNA FP 2.9 and A1 inh -0.5.
CN(c1cc(=O)n2ccccc2n1)C1CCCCC1 was read as Vif TR-FRET -5.0%, UCH37 DUB inh 2.6, LANA-H2B inh 1.0, Beta2AR agonist 1.5, Ecoli growth 0.673, HNF4A DNA FP -2.5 and A1 inh 0.2.
For Cn1nnnc1SCC(=O)Nc1ccc2c(c1)OCCO2 the results were UCH37 DUB inh 1.2, LANA-H2B inh 6.2, Beta2AR agonist -4.0, Ecoli growth 0.683, HNF4A DNA FP -3.4 and A1 inh -6.3.
COc1ccc(C(=O)COC(=O)CNC(=O)c2ccc(OC)cc2)cc1 was read as Vif TR-FRET -12.0%, UCH37 DUB inh 0.3, LANA-H2B inh -0.6, Beta2AR agonist 15.5, Ecoli growth 0.628, HNF4A DNA FP 2.0 and A1 inh -0.4.
CCc1nc2sc3ccccc3c(=O)c2c(=O)n1Cc1ccc(OC)cc1 was read as Vif TR-FRET -45.4%, UCH37 DUB inh 3.1, LANA-H2B inh 5.6, Beta2AR agonist -1.1, Ecoli growth 0.723, HNF4A DNA FP -0.8 and A1 inh -1.1.
For NC(=O)CN1CCN(CCN2C(=O)c3cccc4cccc(c34)C2=O)CC1 the results were UCH37 DUB inh -24.8, LANA-H2B inh -1.7, Beta2AR agonist 0.2, Ecoli growth 0.676, HNF4A DNA FP 3.7 and A1 inh -0.2.
Screening O=C(NCCCn1ccnc1)C(=O)NCC1OCCN1S(=O)(=O)c1ccc(Br)cc1 (stereo not drawn) returned Vif TR-FRET 0.9%, UCH37 DUB inh 4.0, LANA-H2B inh -2.8, Beta2AR agonist -1.4, Ecoli growth 0.733, HNF4A DNA FP 2.6 and A1 inh -0.6.
For O=C(Nc1ccc2c(c1)C(=O)NC2=O)c1ccccc1Cl the results were UCH37 DUB inh -98.8, LANA-H2B inh -2.4, Beta2AR agonist -4.1, Ecoli growth 0.737, HNF4A DNA FP -2.4 and A1 inh 0.5.
O=C(COC(=O)c1cccc(NS(=O)(=O)c2ccc(F)c(F)c2)c1)NC(=O)NC1CCCC1 was read as Vif TR-FRET 9.3%, UCH37 DUB inh 0.6, LANA-H2B inh -3.3, Beta2AR agonist 6.7, Ecoli growth 0.723, HNF4A DNA FP 1.4 and A1 inh -0.3.
Screening O=C(Oc1cccc(NC(=O)c2ccccc2Cl)c1)c1ccc([N+](=O)[O-])cc1 returned Vif TR-FRET inconclusive, UCH37 DUB inh 1.5, LANA-H2B inh 0.7, Beta2AR agonist 3.8, Ecoli growth 0.616, HNF4A DNA FP -1.3 and A1 inh -2.7.
For COC(=O)c1ccccc1NC(=O)C1CCCN(S(C)(=O)=O)C1 (stereo not drawn) the results were Vif TR-FRET 11.3%, UCH37 DUB inh 4.1, LANA-H2B inh 0.2, Beta2AR agonist 0.0, Ecoli growth 0.686, HNF4A DNA FP -1.6 and A1 inh -0.2.
O=C(COC(=O)c1c(F)cccc1F)NCc1cccs1 was read as Vif TR-FRET -4.4%, UCH37 DUB inh -0.2, LANA-H2B inh -3.4, Beta2AR agonist -3.1, Ecoli growth 0.634, HNF4A DNA FP -7.7 and A1 inh 0.4.
